From PubChem
WNV protease inh: blocks West Nile virus NS2B-NS3 protease activity; P06935; WNV NS2B-NS3 protease, fluorogenic substrate Ex360/Em465; stronger effect = lower value; z-score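 (tested at a level between 10 and 100 µM)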; hit rate 0.18% among 65,000; AID 577;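 active = z-score at -3 or under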;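 also: score is relative to mean and spread of the compound wells of a plate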
Target sequence (P06935 1371-1501 limits assumed): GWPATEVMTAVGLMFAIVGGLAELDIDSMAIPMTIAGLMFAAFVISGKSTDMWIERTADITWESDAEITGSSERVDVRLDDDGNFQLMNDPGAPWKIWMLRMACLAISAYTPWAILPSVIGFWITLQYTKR
Target sequence (P06935 1502-1679 limits assumed): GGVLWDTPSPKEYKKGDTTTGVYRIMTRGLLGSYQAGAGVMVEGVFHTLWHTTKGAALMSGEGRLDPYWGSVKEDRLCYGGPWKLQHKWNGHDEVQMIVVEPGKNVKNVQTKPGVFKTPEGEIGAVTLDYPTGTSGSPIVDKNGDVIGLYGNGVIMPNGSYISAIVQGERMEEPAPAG
MT1-MMP promoter: inhibitors of MT1-MMP promoter transcription, cell-based, luciferase reporter, luminescence (AID 618); calls from a first round at 10 µM; hits with a dose series show EC50 in µM; hit rate 0.62% among 87,000; MT1-MMP promoter luciferase reporter cells, luminescence;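 active = over half of the reporter light lost at 10 µM or EC50 under 50 µM; inactive = the rest and hits that failed the dose series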;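 also: actives suppress MT1-MMP promoter-driven transcription so potencies describe inhibitors; HT1080 fibrosarcoma cells; overnight exposure; toxic or luciferase-blocking compounds were not removed from the actives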
Hsc70 ATP site: small molecules displacing fluorescent ligand from Hsc70 – biochemical, fluorescence polarization, primary screen (AID 568). Hsc70 fluorescence polarization, probe displacement; higher % means a stronger effect; strong numbers were not always called active. one-dose displacement, % at 20 µM; IC50 in µM for titrated hits. 83,000 tested, under 10 active;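 active = displacement above 50% without optical interference and an IC50 on retest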;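 also: ATPase domain with a fluorescein-tagged ATP probe; 0% = vehicle and 100% = excess ADP; read after one hour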
Starred values were filed as active, the others as inactive; i = inactive; · = no result given. An excerpt (hit frequency here may not be typical).

1. Cc1cccc(N2C(=O)NC(=O)C3(Cc4cc(C)ccc4N(C)C3)C2=O)c1 (centres undefined)
  WNV protease inh: -0.62 | MT1-MMP promoter: i | Hsc70 ATP site: -2.1%
2. CCCCCCn1c(O)c(C=NC2CCCCC2N)c(=O)[nH]c1=O (centres undefined)
  WNV protease inh: -0.29 | MT1-MMP promoter: i | Hsc70 ATP site: -10.4%
3. O=C1CC(C(=O)N2CCC3(CC2)OCCO3)CN1CCc1ccccc1 (centres undefined)
  WNV protease inh: 0.28 | MT1-MMP promoter: i | Hsc70 ATP site: -2.9%
4. Clc1ccc(N2CCN(Cc3ccccc3Cl)CC2)cc1
  WNV protease inh: · | MT1-MMP promoter: i | Hsc70 ATP site: -0.4%
5. CCCn1nc2ccccc2c1P(=O)(N1CCOCC1)N1CCOCC1
  WNV protease inh: -1.4 | MT1-MMP promoter: i | Hsc70 ATP site: 0.4%
6. CN1CCN(c2ccc(N)cc2)CC1
  WNV protease inh: · | MT1-MMP promoter: i | Hsc70 ATP site: -1.3%
7. CC(C)NS(=O)(=O)c1ccc(OCC(=O)N2CCN(Cc3ccccc3)CC2)c(Cl)c1
  WNV protease inh: 1.47 | MT1-MMP promoter: i | Hsc70 ATP site: -6.8%
8. O=C(C1c2ccccc2C(=O)N2CCc3ccccc3C12)N1CCC2(CC1)OCCO2 (centres undefined)
  WNV protease inh: 0.82 | MT1-MMP promoter: i | Hsc70 ATP site: -0.4%
9. CSc1ccc(C(=O)C(C)(C)N2CCOCC2)cc1
  WNV protease inh: 0.52 | MT1-MMP promoter: i | Hsc70 ATP site: 0.2%
10. C=CCn1c(O)c(C(CC)=NCCc2ccccc2)c(=O)[nH]c1=O
  WNV protease inh: · | MT1-MMP promoter: i | Hsc70 ATP site: 0.5%

11. O=c1c2ccccc2nc(CN2CCOCC2)n1-c1ccccc1F
  WNV protease inh: 1.34 | MT1-MMP promoter: i | Hsc70 ATP site: 0.4%
12. Cc1nc2ccccc2n1C1CCN(Cc2nnnn2CCc2ccccc2)CC1
  WNV protease inh: 0.2 | MT1-MMP promoter: i | Hsc70 ATP site: 3.8%
13. CCN1CCN(c2nc3ccccc3s2)CC1
  WNV protease inh: · | MT1-MMP promoter: i | Hsc70 ATP site: 4.4%
14. c1cncc(CNC2=NCCC2)c1
  WNV protease inh: 0.09 | MT1-MMP promoter: i | Hsc70 ATP site: 0.8%
15. CN(C)C(=O)Oc1c(Cl)cc(Cl)c2ccccc12
  WNV protease inh: · | MT1-MMP promoter: i | Hsc70 ATP site: 1.6%
16. CC(=O)[C@@]1(O)CC[C@H]2[C@@H]3CC=C4C[C@@H](O)CC[C@]4(C)[C@H]3CC[C@@]21C
  WNV protease inh: -0.00393 | MT1-MMP promoter: i | Hsc70 ATP site: -6.7%
17. CN1C(=O)N(C)C(=O)C(CCc2ccncc2)(Cc2ccc3c(c2)OCO3)C1=O
  WNV protease inh: -1.31 | MT1-MMP promoter: i | Hsc70 ATP site: 1.0%
18. CC(NC(=O)Oc1ccccc1)C(c1cccs1)N1CCOCC1 (centres undefined)
  WNV protease inh: 0.35 | MT1-MMP promoter: i | Hsc70 ATP site: -4.6%
19. O=C1NC(=S)NC(=O)C1C/C=C/c1ccccc1
  WNV protease inh: · | MT1-MMP promoter: i | Hsc70 ATP site: 2.5%
20. CN(C)P(=NC(=S)c1cccn1C)(N(C)C)N(C)C
  WNV protease inh: -0.75 | MT1-MMP promoter: i | Hsc70 ATP site: -0.1%

14 successive entries out of the list so far, for reference:
7. CC(C)NS(=O)(=O)c1ccc(OCC(=O)N2CCN(Cc3ccccc3)CC2)c(Cl)c1
  WNV protease inh: 1.47 | MT1-MMP promoter: i | Hsc70 ATP site: -6.8%
8. O=C(C1c2ccccc2C(=O)N2CCc3ccccc3C12)N1CCC2(CC1)OCCO2 (centres undefined)
  WNV protease inh: 0.82 | MT1-MMP promoter: i | Hsc70 ATP site: -0.4%
9. CSc1ccc(C(=O)C(C)(C)N2CCOCC2)cc1
  WNV protease inh: 0.52 | MT1-MMP promoter: i | Hsc70 ATP site: 0.2%
10. C=CCn1c(O)c(C(CC)=NCCc2ccccc2)c(=O)[nH]c1=O
  WNV protease inh: · | MT1-MMP promoter: i | Hsc70 ATP site: 0.5%
11. O=c1c2ccccc2nc(CN2CCOCC2)n1-c1ccccc1F
  WNV protease inh: 1.34 | MT1-MMP promoter: i | Hsc70 ATP site: 0.4%
12. Cc1nc2ccccc2n1C1CCN(Cc2nnnn2CCc2ccccc2)CC1
  WNV protease inh: 0.2 | MT1-MMP promoter: i | Hsc70 ATP site: 3.8%
13. CCN1CCN(c2nc3ccccc3s2)CC1
  WNV protease inh: · | MT1-MMP promoter: i | Hsc70 ATP site: 4.4%
14. c1cncc(CNC2=NCCC2)c1
  WNV protease inh: 0.09 | MT1-MMP promoter: i | Hsc70 ATP site: 0.8%
15. CN(C)C(=O)Oc1c(Cl)cc(Cl)c2ccccc12
  WNV protease inh: · | MT1-MMP promoter: i | Hsc70 ATP site: 1.6%
16. CC(=O)[C@@]1(O)CC[C@H]2[C@@H]3CC=C4C[C@@H](O)CC[C@]4(C)[C@H]3CC[C@@]21C
  WNV protease inh: -0.00393 | MT1-MMP promoter: i | Hsc70 ATP site: -6.7%
17. CN1C(=O)N(C)C(=O)C(CCc2ccncc2)(Cc2ccc3c(c2)OCO3)C1=O
  WNV protease inh: -1.31 | MT1-MMP promoter: i | Hsc70 ATP site: 1.0%
18. CC(NC(=O)Oc1ccccc1)C(c1cccs1)N1CCOCC1 (centres undefined)
  WNV protease inh: 0.35 | MT1-MMP promoter: i | Hsc70 ATP site: -4.6%

19. O=C1NC(=S)NC(=O)C1C/C=C/c1ccccc1
  WNV protease inh: · | MT1-MMP promoter: i | Hsc70 ATP site: 2.5%
20. CN(C)P(=NC(=S)c1cccn1C)(N(C)C)N(C)C
  WNV protease inh: -0.75 | MT1-MMP promoter: i | Hsc70 ATP site: -0.1%

(continued)
21. COc1cc(CN2C(=O)NC(=O)C3(Cc4cc(C)ccc4N(C)C3)C2=O)cc(OC)c1 (centres undefined)
  WNV protease inh: -1.01 | MT1-MMP promoter: i | Hsc70 ATP site: -0.6%
22. CCc1cc2c(N3CCN(C)CC3)ncnc2s1
  WNV protease inh: · | MT1-MMP promoter: i | Hsc70 ATP site: 2.6%
23. Cc1ccc(CC2C(=O)N(C)C(=O)N(C)C2=O)s1
  WNV protease inh: -0.45 | MT1-MMP promoter: i | Hsc70 ATP site: 4.7%
24. CN1C(=O)CN=C(c2ccc(Cl)cc2)c2cc(Cl)ccc21
  WNV protease inh: -0.28 | MT1-MMP promoter: i | Hsc70 ATP site: -6.7%
25. COc1ccc(C(=O)CC2C(=O)N(C)C(=O)N(C)C2=O)cc1
  WNV protease inh: 0.25 | MT1-MMP promoter: i | Hsc70 ATP site: 3.7%
26. O=C1CC(N2CCC(n3c(=O)[nH]c4ccccc43)CC2)C(=O)N1c1ccc(F)cc1 (centres undefined)
  WNV protease inh: -0.04 | MT1-MMP promoter: i | Hsc70 ATP site: -0.1%
27. C=CCn1c(O)c(C(=O)CCCCCC)c(=O)[nH]c1=O
  WNV protease inh: -0.9 | MT1-MMP promoter: i | Hsc70 ATP site: -7.3%
28. COc1ccc(N2CCN(CCCN)CC2)cc1
  WNV protease inh: -0.45 | MT1-MMP promoter: i | Hsc70 ATP site: 0.8%
29. Fc1cccc(F)c1CN1CCN(Cc2c(F)cccc2F)CC1
  WNV protease inh: 0.11 | MT1-MMP promoter: i | Hsc70 ATP site: -2.2%
30. CC12CN3C(O)C(C)(C1)CC(C)(C2)C3O (centres undefined)
  WNV protease inh: 1.38 | MT1-MMP promoter: i | Hsc70 ATP site: 3.1%

31. Cc1nc2cc(C(=O)N3CCC4(CC3)OCCO4)ccc2n1-c1ccc(Br)cc1
  WNV protease inh: -0.36 | MT1-MMP promoter: i | Hsc70 ATP site: -10.0%
32. Cc1cc(/C=C2/C(=O)NC(=O)N(c3ccccc3)C2=O)c(C)n1-c1ccc(F)cc1
  WNV protease inh: · | MT1-MMP promoter: i | Hsc70 ATP site: -6.5%
33. C=CCn1c(O)c(C=NCCCOc2ccc(CC)cc2)c(=O)[nH]c1=S
  WNV protease inh: · | MT1-MMP promoter: i | Hsc70 ATP site: -19.1%
34. CC1CCCN(CC(=O)N2CCCc3ccccc32)C1 (centres undefined)
  WNV protease inh: · | MT1-MMP promoter: i | Hsc70 ATP site: 10.7%
35. O=C(CN1C(=O)CCSc2ccccc21)N1CCC2(CC1)OCCO2
  WNV protease inh: 1.56 | MT1-MMP promoter: i | Hsc70 ATP site: -3.2%
36. O=C(Nc1ccccc1OC(=O)N1CCCCC1)N1CCCCC1
  WNV protease inh: -0.02 | MT1-MMP promoter: i | Hsc70 ATP site: -1.7%
37. CN(CC1COc2ccccc2O1)c1nc(-c2cccnc2)nc2ccccc12 (centres undefined)
  WNV protease inh: -0.33 | MT1-MMP promoter: i | Hsc70 ATP site: 1.0%
38. CCCC(=O)Nc1cc(C(=O)N2CCC3(CC2)OCCO3)ccc1S(=O)(=O)c1ccc(C)cc1
  WNV protease inh: · | MT1-MMP promoter: i | Hsc70 ATP site: -0.2%
39. CCOP(=O)(C#CC(C)(C)C)C1(O)CCCCC1 (centres undefined)
  WNV protease inh: 0.79 | MT1-MMP promoter: i | Hsc70 ATP site: 0.2%
40. CCOP(=S)(OCC)SCC(=O)NC(C)(CC)C(=O)O (centres undefined)
  WNV protease inh: · | MT1-MMP promoter: i | Hsc70 ATP site: 5.3%

Taken from above.
Reading of cpd 32 in Hsc70 ATP site: -6.5%
Reading of cpd 18 in WNV protease inh: 0.35

Carrying on:
41. O=C1OCCC1NC1=NCCC1 (centres undefined)
  WNV protease inh: 0.35 | MT1-MMP promoter: i | Hsc70 ATP site: 2.2%
42. O=C(Cn1cnc2sc3c(c2c1=O)CCCC3)NCCC(=O)N1CCC2(CC1)OCCO2
  WNV protease inh: -1.72 | MT1-MMP promoter: i | Hsc70 ATP site: -8.1%
43. C[N+]1(C)CCc2cc3c(cc2[C@H]1[C@@H]1OC(=O)c2c1ccc1c2OCO1)OCO3
  WNV protease inh: -0.04 | MT1-MMP promoter: i | Hsc70 ATP site: -1.9%
44. CCOP(=O)(OCC)C(NC(=O)C(Cl)Cl)C(Cl)(Cl)Cl (centres undefined)
  WNV protease inh: · | MT1-MMP promoter: i | Hsc70 ATP site: -2.2%
45. C=COCCn1c(C)c(C(=O)OCC)c2cc(O)ccc21
  WNV protease inh: -0.67 | MT1-MMP promoter: i | Hsc70 ATP site: -0.8%
46. CCCCn1c(O)c(C(C)=NCCCN(C)C)c(=O)[nH]c1=O
  WNV protease inh: 1.22 | MT1-MMP promoter: i | Hsc70 ATP site: -4.3%
47. O=c1c2ccccc2nc(-c2ccco2)n1-c1ccccc1
  WNV protease inh: · | MT1-MMP promoter: i | Hsc70 ATP site: -1.5%
